From PubChem BioAssay
HSD17B inh = inhibitors of human HSD17B10 dehydrogenase | Q99714 | recombinant HSD17B10, NADH fluorescence kinetic; many of its hits are not listed in these tables | Potency, µM (top dose mostly 57.1 µM), for inactives: top-dose activity change, negative = inhibition, usual class: inhibitors | 75,000 tested, 7.6% active; active = well fitted inhibition curve with a large enough effect; inconclusive = small, poorly fitted or top-dose-only effect; inactive = no such curve, though single readings can be large or run the other way;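 note: the protocol describes HADH2 (HSD17B10) and not the HSD17B4 of the title; nearly all actives have a fitted effect of over 70% in size; most hits overshoot -100% by far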
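Activity followed as NADH fluorescence increase (ex 360, em 450 nm) every 30 seconds for 4 min, using final 90 uM beta-hydroxybutyryl CoA and 1 mM NAD+. Recombinant His-tagged enzyme, 20 nM, pH 9.0 Tris buffer, 15 min compound preincubation.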
* marks the source's active call; other numbers are inactive results; u = inconclusive; [ ] = another dose, or the depositor's remark. % is set by controls: 0 for no effect and ±100 for the full control effect; potency is the fitted concentration of half-maximal effect. This is a subset, so the mix of outcomes need not match the whole.

Start of the data: the first 2 compounds, to show the layout:
SMILES	HSD17B inh
CCOC(=O)Cc1nnc(NC(=O)CSc2nncn2C)s1	11.6%
Cc1ccc(-n2c(-c3ccncc3)nnc2-c2cccs2)cc1	25.1µM*

Main list, previewed entries included:
SMILES	HSD17B inh
CCOC(=O)Cc1nnc(NC(=O)CSc2nncn2C)s1	11.6%
Cc1ccc(-n2c(-c3ccncc3)nnc2-c2cccs2)cc1	25.1µM*
C=C(C)CSc1nc(C)c(Cc2ccccc2)c(=O)[nH]1	-1.9%
COC(=O)c1ccc(CSc2nc(N)cc(N)n2)cc1	5.4%
O=c1[nH]c(=O)c2nc(Br)n(C3OC(CO)C(O)C3O)c2[nH]1 (stereo unspecified)	8.0%
CCS(=O)(=O)NCCCc1ccccc1	6.0%
Cc1ccc(-c2nnc3sc(C4COc5ccccc5O4)nn23)cc1 (stereo unspecified)	0.1%
COc1ccc(NC(=O)C2=C(C)NC(=O)NC2c2cccc(OC)c2OC)c(OC)c1 (stereo unspecified)	-6.5%
CCCCn1cnc2cc(NCc3ccncc3)ccc21	-14.4%
Cc1cc(C)c2nc(C(F)(F)F)nc(NCCCN3CCCC3=O)c2c1	7.5%
O=C(c1ccc(Cn2cc(Cl)cn2)cc1)N1CCN(c2ccccc2)CC1	3.4%
O=C(NCc1ccco1)Nc1ccc2nsnc2c1	25.1µM*
O=C(O)C1CC(C2CCCCN2)CN2CCCCC12 (stereo unspecified)	14.2%
Cc1noc(C)c1-c1nc(Nc2ccccc2)c2ccccc2n1	20µM*
Fc1cccc(NCc2ccoc2)c1	-3.9%
CCCC(=O)Nc1ccc(NC(=O)Cc2ccccc2)cn1	7.9%
Nc1ccc(-c2cc(N)n(-c3ccccc3)n2)cc1	3.7%
CCCS(=O)(=O)N1CCC(C(=O)N2CCCC2)CC1	2.3%
O=c1c(O)c(-c2ccc(O)c(O)c2)oc2c(OC3OC(CO)C(O)C(O)C3O)c(O)cc(O)c12 (stereo unspecified)	-29.4%
Cn1c(CN2CCCCC2)nc2cc(NC(=O)c3ccccc3)ccc21	-2.7%

Shown in CSV form: two of the compounds above.
SMILES,HSD17B inh
O=c1c(O)c(-c2ccc(O)c(O)c2)oc2c(OC3OC(CO)C(O)C(O)C3O)c(O)cc(O)c12 (stereo unspecified),-29.4%
Cn1c(CN2CCCCC2)nc2cc(NC(=O)c3ccccc3)ccc21,-2.7%

(listing goes on)
SMILES	HSD17B inh
CN1CCc2c(c3ccccc3n2Cc2ccccc2)C1	-3.8%
COCCNc1oc(COc2cccc(C)c2)nc1C#N	5.1%
CC1=CCC(Cc2nc3ccccc3o2)C1(C)C (stereo unspecified)	2.6%
COC(=O)c1cc2sccc2n1Cc1ccc(C)cc1	-2.9%
CC1(C)CC(=O)C(C=NCCN2CCOCC2)=C(O)C1	5.6%
C=C(C)COc1ccc2c(c1)CCC1C2CC[C@]2(C)C(=O)/C(=N/O)CC12 (stereo partly specified)	-2.5%[11.4 µM]
CC(C)OC(=O)CSc1nnc(-c2ccc(Cl)cc2Cl)n1N	16.2%
N[C@H](C(=O)O)c1ccc(C(=O)O)c(O)c1	39.8µM*
Cc1ccc(-n2nc(C)c(C3C(C#N)=C(N)OC4=C3C(=O)CC(C)(C)C4)c2Cl)cc1 (stereo unspecified)	-11.6%
Cc1cccc(NC(=O)C2CCN(c3nccc(C)n3)CC2)c1	u
CCOC(=O)CNC(=O)CSc1nc(N)cc(N)n1	10.3%
Cn1c(=O)c2c(nc(N3CCCCC3)n2CCNC2=NCCC2)n(C)c1=O	-20.0%
Cc1[nH]c2ccccc2c1C(=O)CN1CCCC1	1.5%
Cc1cc2nc(NC3=NCN(Cc4cccnc4)CN3)nc(C)c2cc1C	2.3%
Cc1noc(C)c1-c1ccc2ncnc(NC3CCNCC3)c2c1	-4.6%
O=C1CCCC(O)=C1C=Nc1ccc(O)cc1	-13.4%
O=C(COc1ccc(Cl)cc1Cl)Nc1ccccn1	7.3%
O=C(O)C1C2C=CC(O2)C1C(=O)Nc1ccc(S(=O)(=O)Nc2ccccc2)cc1 (stereo unspecified)	u
O=C1c2ccccc2NC2CCCCCN12 (stereo unspecified)	31.6µM*
S=C(S)NCCCn1ccnc1	-9.2%[11.4 µM]
CCCOc1ccc(N2C(=O)CC(NCCNc3ccc(S(=O)(=O)CC)cc3)C2=O)cc1 (stereo unspecified)	-27.2%
CC(=O)Nc1ccc(S(=O)(=O)Nc2cccc(-c3nc4cc(C)ccc4o3)c2)cc1	-6.5%
COc1ccccc1NC(=O)c1cccc(S(=O)(=O)N2CCOCC2)c1	-1.3%
COc1ccc(CNC(=O)CN(c2cccc(OC)c2)S(C)(=O)=O)cc1	-3.4%
O=C(CN1CCCCC1)Nc1ccc(F)c(Cl)c1	-6.6%
O=C(NCc1cccs1)C1CC(=O)N(c2ccccc2)C1 (stereo unspecified)	0.2%
COc1ccc(-c2nc(C#N)c(NCCN(C)C)o2)cc1	25.1µM*
COC(=O)c1ccccc1NC(=O)c1ccc(F)cc1	13.3%
CCOC(=O)c1cc2sccc2n1CCCN1C(=O)c2ccccc2C1=O	-27.2%
O=C(O)c1ccc(NS(=O)(=O)/C=C/c2ccccc2)cc1	-3.8%
CCOC(=O)c1[nH]c2ccc(OC)cc2c1NC(=O)C(C)N1CCC2(CC1)OCCO2 (stereo unspecified)	25.1µM*
Cc1coc(C)c1C(=O)CC1(O)C(=O)N(Cc2ccccc2)c2ccccc21 (stereo unspecified)	u
CC(C)CCn1nnnc1C(c1ccccc1)N1CCC(C(N)=O)CC1 (stereo unspecified)	11.0%
Cc1nnc(NC(=O)C(C)Oc2ccc3c(C)cc(=O)oc3c2)s1 (stereo unspecified)	u
Cc1cc(C)c(S(=O)(=O)Nc2cccc3nsnc23)c(C)c1	u
COCCNc1ncnc2ccc(-c3ccc(N(C)C)cc3)cc12	-5.9%
Cc1ccc(C(=O)CCNc2ccc(Br)cc2)o1	-6.9%
CCn1c(=O)c(=O)n(CC)c2cc(S(=O)(=O)Nc3cccc(OC)c3)ccc21	-7.2%
CC1CCN(CC(=O)Nc2sc3c(c2C#N)CCC3)CC1	u
Cc1cc(C)n(-c2ccc(C(=O)Nc3ccccc3N3CCOCC3)cc2)n1	-1.9%

Some of the entries so far, as comma-separated lines:
mol,HSD17B inh
COC(=O)c1ccc(CSc2nc(N)cc(N)n2)cc1,5.4%
COc1ccc(NC(=O)C2=C(C)NC(=O)NC2c2cccc(OC)c2OC)c(OC)c1 (stereo unspecified),-6.5%
Cc1cccc(NC(=O)C2CCN(c3nccc(C)n3)CC2)c1,u
COC(=O)c1ccccc1NC(=O)c1ccc(F)cc1,13.3%
Cc1coc(C)c1C(=O)CC1(O)C(=O)N(Cc2ccccc2)c2ccccc21 (stereo unspecified),u

Next records
SMILES	HSD17B inh
CCc1ccc2c(c1)[C@]1(C(=O)N2)[C@@H]2C(=O)N(Cc3ccccc3)C(=O)[C@@H]2[C@@H]2CCCN21	-13.4%
Cc1cc(=O)c2ccccc2[nH]1	-6.1%
O=C(CNCC1CCCO1)Nc1ccccc1-n1cccc1 (stereo unspecified)	1.1%
CCCC1(C(=O)O)NC(c2cccc(OC)c2O)C2C(=O)N(c3ccccc3)C(=O)C21 (stereo unspecified)	2.1%
CC1CCN(c2nc(-c3ccncc3)nc3ccccc23)CC1	-2.0%
COCCNCC(=O)NC12CC3CC(CC(C3)C1)C2	1.7%
COc1cc(N=c2ssnc2Cl)cc(OC)c1OC	7.94µM*
N#Cc1nc(-c2ccco2)oc1N1CCN(c2ccccc2)CC1	-21.1%
CC(C)(C)C1CCc2onc(C(=O)Nc3cccnc3)c2C1 (stereo unspecified)	-15.8%
COC(=O)CCC(=O)Nc1sc2c(c1C#N)CCCC2	-12.2%
COC(=O)C1=C(C)OC(N)=C(C#N)C1c1ccccc1F (stereo unspecified)	-2.9%
Cn1c(=O)oc2cc(S(=O)(=O)N3CCN(Cc4ccc5c(c4)OCO5)CC3)ccc21	2.3%
COc1ccc(-c2nc(SC)n(C)c(=O)c2C#N)cc1OC	u
Cc1ccc(C(=O)CS(C)(=O)=O)cc1	2.3%
COc1ccccc1OCCn1cc(C(=O)c2ccco2)c2ccccc21	u
O=C1Cn2c(nc3ccccc32)N1c1ccccc1F	18.1%
O=C(Cc1coc2ccc3ccccc3c12)N1CCCC1	4.3%
CC(C)OCCCn1c(=S)[nH]c2ncccc2c1=O	-10.8%
Cc1cc(OCc2nn[nH]n2)c2c(C)c(Cc3ccccc3)c(=O)oc2c1	31.6µM*
Cc1nc2ccccc2cc1C(=O)NCc1ccco1	31.6µM*
CCCCCCCC1=Cc2ccccc2C(CC(C)=O)N1C(=O)OC (stereo unspecified)	-5.0%[11.4 µM]
CCN(CC)Cc1cc(CC(C(N)=O)C(N)=O)ccc1OC	10.9%
CC(C)n1c(SCC(=O)N2CCCc3ccccc32)nc2c1c(=O)n(C)c(=O)n2C	3.0%
COC(=O)c1cccc(NC(=O)CN(c2ccc3c(c2)OCO3)S(C)(=O)=O)c1C	6.5%
CCOC(=O)N1CCC(NC(=O)Cc2ccc(-n3c(=O)[nH]c4ccccc4c3=O)cc2)CC1	-19.3%
Cc1ccc(C(=O)C2CCN(CC(=O)Nc3ccc(N(C)C)cc3)CC2)cc1	5.8%
Cc1ccccc1NC(=O)CSc1nc(N)c(C#N)c(-c2cccs2)c1C#N	31.6µM*
CC(C)=CCC/C(C)=C/CO/N=C1/C[C@@H](O)[C@@H](O)[C@@H]2[C@@H]3C(=O)N(C(C)(C)C)C(=O)[C@H]3CC[C@H]12	0.5%[11.4 µM]
Cc1ccc(S(=O)(=O)N(C)CC(=O)Nc2nc3ccccc3s2)cc1	-3.7%
CCCn1c(-c2ccc(F)cc2)nc2c(NCCCCN3CCCC3)nc(C)nc21	25.1µM*
COc1ccc(-n2nnnc2SCC(=O)NCCc2ccc(OC)c(OC)c2)cc1	3.4%
CCOC(=O)C1CCCN(CC(=O)Nc2c(F)c(F)c(F)c(F)c2F)C1 (stereo unspecified)	13.8%
CCCCn1c(CCCNC(=O)CC)nc2ccccc21	1.5%
CC1=C(/C=C/C(C)=C/C=C/C(C)=C/C=C/C=C(C)/C=C/C=C(C)/C=C/C(=O)[C@]2(C)CC(O)CC2(C)C)C(C)(C)CC(O)C1 (stereo partly specified)	-0.6%
C/C=C(\C)CN1CCN(c2cc(C)ccc2C)CC1	0.6%
O=c1c2ccccc2nc(CSc2nnnn2-c2ccccc2)n1-c1ccccc1	5.0%
Nn1c(SC/C=C/c2ccccc2)nnc1-c1ccccn1	-6.2%
COC(=O)C1=C(C)N(C)C(=O)NC1c1ccc(O)c(OC)c1 (stereo unspecified)	2.0%
CNC(=O)CSc1nnnn1-c1ccc(C)cc1C	2.3%
CC(C)=CCC/C(C)=C/CO/N=C1/C[C@@H](O)[C@@H](O)[C@@H]2[C@@H]3C(=O)N(C[C@@H]4CCCO4)C(=O)[C@H]3CC[C@H]12	-7.6%[11.4 µM]
CCOC(=O)c1cnc2sccn2c1=O	25.1µM*
COCCn1c(C)cc(C(=O)COc2nc3ccccc3nc2C)c1C	-9.5%
Cc1ccc(S(=O)(=O)N(CC(=O)N2CCOCC2)CC(=O)N2CCOCC2)cc1	11.4%
CC1CN(S(=O)(=O)c2ccc(NC(=O)c3ccco3)cc2)CC(C)O1 (stereo unspecified)	-25.2%
Cc1cc(NC(=O)c2cccc(S(=O)(=O)N3CCCCCC3)c2)n(-c2ccccn2)n1	9.2%
Cc1c(C(=O)NCc2ccccn2)oc2ccccc12	-3.5%
CCCOC(=O)c1ccc(Nc2cc(C)nc3ncnn23)cc1	-6.0%
Cc1ccc(-c2nc(CS(=O)CC(=O)NCc3ccccn3)c(C)o2)cc1 (stereo unspecified)	-9.7%
COc1ccc(NC(=O)Cc2nc3ccccc3[nH]2)cc1	1.1%
Cc1nc2ccccc2c2c1C(=O)N(CCC1=CCCCC1)C2=O	-4.5%
(next part)
SMILES	HSD17B inh
O=C(Nc1ccc(F)cc1)N1CCn2c(nc3ccccc32)C1	5.4%
COc1cccc(C2C(C)CCC3C(=O)N(C)C(C(C)C)C(=O)N32)c1 (stereo unspecified)	1.5%[11.4 µM]
Cc1cc(Nc2ccccc2F)n2nc(C)nc2n1	0.8%
CCSc1nc(-c2ccc(OC)cc2)ccc1C#N	31.6µM*
Cc1ccc(C)c(OCC(O)CN2CCC(C)CC2)c1C (stereo unspecified)	1.0%
NC(=O)C1(N2CCCCC2)CCN(C(=O)c2cccs2)CC1	4.0%
Cc1nnc(NC(=O)c2ccc3ccccc3c2)o1	-2.4%
COc1ccccc1CCNC(=O)C1CCCO1 (stereo unspecified)	-15.2%
CCn1c(COc2cccc(OC)c2)nnc1SCC(=O)N1CCOCC1	-0.5%
Cc1ccc(Cl)cc1N1CCN(C(=O)c2cn(C)c(=O)c3c2c2ccccc2n3C)CC1	-24.7%
O=C(Nc1ccccc1)N1CC2(CCN(C(=O)c3ccncc3)CC2)C1	-4.3%
Cc1cc(NC(=O)c2cc(-c3ccncc3)nc3c(C)cccc23)no1	31.6µM*
Cn1c(=O)n(C)c2cc(NC(=O)C(F)(F)F)ccc21	-1.8%
O=C(CSc1nc2ccncc2[nH]1)Nc1ccccc1C(F)(F)F	4.9%
CCCn1c(NC(=O)c2cccc(S(=O)(=O)N3CCCC3)c2)nc2ccccc21	u
O=C(CSc1nnc(NC(=O)C2CC2)s1)Nc1ccc(F)cc1	4.3%
C=CCn1c(COc2ccc(Cl)cc2)nnc1SCc1ccc(C#N)cc1	0.4%
C=CCN=C(NC#N)SCC(=O)NCc1ccccc1	-16.4%
CCC(=O)c1cn(CC(=O)NCc2cccnc2)c2ccccc12	6.6%
COc1ccc(C2=NOC(C(=O)NCc3ccccc3)C2)cc1 (stereo unspecified)	4.4%
CCOC(=O)CNC(=O)C1c2cc(OC)c(OC)cc2C(=O)N(C)C1c1ccccc1F (stereo unspecified)	-17.3%
COCCCNC(=O)C(F)(F)C(F)(F)C(=O)NCCCOC	4.1%
